# gsp antag: antagonists of gsp mutant (McCune-Albright syndrome); gsp-mutant cells, cAMP HTRF, 30 min; control for the full effect not named in the record; Potency, µM (doses to about 76.9 µM), for inactives: top-dose activity change, negative = inhibition, usual class: inhibitors; 340,000 compounds, 0.4% hits; AID 624288; active = falling curve of any shape with a large fitted effect; inconclusive = falling curve, mostly with a smaller effect; inactive = flat or rising curve; cell line not stated here;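 also: intracellular cAMP measured with PDE inhibitor Ro 20-1724 present during compound exposure; potency is read from the fitted curve at half-maximal effect; % is scaled to controls: 0 for no effect and ±100 for the full control effect; nearly all actives have a fitted effect of over 65% in size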
#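 G418-selected cells were plated in DMEM/10% FBS for 16-24 h at 37C, then treated with compounds plus the PDE inhibitor […] (300 uM solution added) for 30 min at 37C. Intracellular cAMP was measured by HTRF after 30 min lysis at room temperature.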
# gsp agonist: agonists of gsp mutant (McCune-Albright syndrome) | gsp mutant cells, cAMP HTRF, 30 min; control for the full effect not named in the record | Potency, µM (highest dose often 76.9 µM), for the others: top-dose activation (cAMP increase), hits mostly activators | 340,000 compounds, 0.13% hits | AID 624287; active = well fitted activation curve with a large enough effect; inconclusive = small, poorly fitted or top-dose-only effect, or another doubt; inactive = no such curve, though single readings can be large or run the other way; cell line not stated here;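 also: phosphodiesterase inhibitor Ro 20-1724 added with compounds to block cAMP breakdown; potency is read from the fitted curve at half-maximal effect; nearly all actives have a fitted effect of over 60% in size; about a fifth of the inactives were tested at one dose only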
#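 Cells stably selected in G418 were plated at 2000/well, grown 16-24 hr, then given compounds in DMSO with the PDE inhibitor […] (300 uM solution added) for 30 min at 37C; cAMP was read by HTRF.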
# Menin MLL FP FL: inhibitors of human menin-MLL interaction, wild-type MLL peptide; AID 1766; 290,000 tested, under 10 active; FP activity change, % at 61.4 µM; Fluorescence polarization, fluorescein-MLL peptide displacement from menin; inconclusive = falling polarisation curve, or a change in total fluorescence; inactive = total fluorescence flat and polarisation flat or rising; no compound was filed as active; the % refers to the polarisation; negative = inhibition;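 also: % of control where 0% means no effect; inhibitors lower the polarisation; unlabelled MLL peptide was the positive control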
# TRPML1 blocker: inhibitors of human TRPML1 channel. TRPML1-inducible cells, Ca2+ dye fluorescence, FDSS; stronger effect = lower value; inhibition of EC80 agonist-evoked calcium signal. activity change, negative = inhibition, % (concentration not given with the values). 390,000 compounds, 0.02% hits. AID 624415; in the data active means activity change below about -50%; inconclusive means about -30% to -50%; inactive means above about -30%;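 also: stimulus is agonist 54-4 at its EC80 concentration; % is scaled to controls: 0 for no effect and ±100 for the full control effect; the text of the record puts the active cut at -80%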
# Target sequence (Q9GZU1 whole entry, looked up): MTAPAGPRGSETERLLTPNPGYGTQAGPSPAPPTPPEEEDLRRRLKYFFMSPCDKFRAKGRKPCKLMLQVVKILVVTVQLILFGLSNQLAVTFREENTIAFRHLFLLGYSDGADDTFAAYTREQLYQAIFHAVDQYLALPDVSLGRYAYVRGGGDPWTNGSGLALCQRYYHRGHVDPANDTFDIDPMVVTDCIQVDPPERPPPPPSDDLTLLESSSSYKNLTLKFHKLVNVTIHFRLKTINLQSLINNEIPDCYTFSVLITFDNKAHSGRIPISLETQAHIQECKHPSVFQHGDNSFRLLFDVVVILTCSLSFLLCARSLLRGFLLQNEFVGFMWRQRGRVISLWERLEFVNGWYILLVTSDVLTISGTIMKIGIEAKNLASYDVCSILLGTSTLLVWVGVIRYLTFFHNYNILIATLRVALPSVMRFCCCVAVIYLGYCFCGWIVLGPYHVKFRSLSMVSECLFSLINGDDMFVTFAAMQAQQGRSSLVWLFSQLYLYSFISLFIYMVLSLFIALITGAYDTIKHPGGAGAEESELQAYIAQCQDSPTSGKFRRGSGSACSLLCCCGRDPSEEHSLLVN
#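 Tet-induced TRPML1-DL cells loaded with Ca8 no-wash calcium dye were read kinetically on FDSS. Compound addition was followed by EC80 agonist 54-4 (4 uM final); inhibition was read over 110 s.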
# TRPML1 ag: agonists of human TRPML1 channel. 410,000 compounds, 0.12% hits. activation, % (test concentration not listed). TRPML1-expressing cells, Ca2+ dye fluorescence, FDSS; host cell line not named in the record; reference of the full effect not given here. AID 624414. Q9GZU1; in the data active = activation above about 50%; inconclusive = about 30% to 50%; inactive = below about 30%; also: 0% is about no effect; the text of the record puts the active cut at 80%
#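 Calcium fluorescence on an FDSS kinetic reader gave the read-out. Tet-induced TRPML1-DL cells were plated overnight, dye-loaded (Ca8 with quencher, 45-90 min, room temperature, dark), then read 110 s after compound addition, and again 110 s after 4uM final 54-4 (EC80).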
# ClpP mod: qHTS Assay for Activators of ClpP; ATP-dependent Clp protease proteolytic subunit (Bacillus subtilis (strain 168)), P80244; purified B. subtilis ClpP, FRET peptide cleavage, 20 min; Potency, µM (titrated, usually from 57.5 µM), inactives show at the top dose activity change, negative = active; 340,000 compounds, 1.9% hits; AID 651965, 2013; active = well fitted falling curve with a large enough effect; inconclusive = small, poorly fitted or top-dose-only effect; inactive = no such curve, though single readings can be large or run the other way; also: potency is read from the fitted curve at half-maximal effect; the source files actives as falling curves though it sought activators and does not explain the sign; nearly all actives have a fitted effect of over 65% in size; many hits overshoot -100%
# Target sequence (P80244 whole entry, looked up): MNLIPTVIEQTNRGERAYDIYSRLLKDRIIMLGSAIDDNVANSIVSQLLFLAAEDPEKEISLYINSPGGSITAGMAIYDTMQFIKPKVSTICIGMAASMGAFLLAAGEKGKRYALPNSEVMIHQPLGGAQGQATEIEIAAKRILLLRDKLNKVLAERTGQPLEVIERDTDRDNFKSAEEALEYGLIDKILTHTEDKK
#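 Purified B. subtilis ClpP, 10 microg/mL final in Tris/HCl pH8 with KCl, BSA, glycerol and Tween-20, cleaved an Abz/nitrotyrosine-quenched decapeptide. Fluorescence (ex 320, em 430) was read at 0 and 20 min at room temperature. Delta was normalized to 5.8 microM ADEP and DMSO/no-enzyme controls.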
# An asterisk follows results filed as active; ? = inconclusive; nt = not tested or not shown; & = joins results of further samples; [ ] = another dose, or the depositor's remark.
Compound,gsp antag,gsp agonist,Menin MLL FP FL,TRPML1 blocker,TRPML1 ag,ClpP mod
CC1CCC(NC(=O)C2CCC(CNc3c(N4CCCCC4)c(=O)c3=O)CC2)CC1 (centres undefined),1%,1%[15.4 µM],2.1,-4,0.8,nt
O=[N+]([O-])c1ccc(N2CCN(Cc3ccc(Br)o3)CC2)cc1,1%,23%,0.6,-15,0.8,-0.4%
O=C1CN(C(=O)COC(=O)c2ccc([N+](=O)[O-])o2)c2ccccc2N1,6%,-9%,nt,4,1.6,-1.6%
C[N+]1(CC(=O)OCCCc2ccccc2)CCCC1,4%,-45%[inhibitor],2.0,14,0.3,nt
O=C(Nc1ccnn1C1CCN(Cc2ccccc2F)CC1)C1CCCC1,8%,3%,nt,6,-0.2,-0.7%
Cn1cnnc1SCC(=O)N1N=C2/C(=C/c3ccco3)CCCC2C1c1ccco1 (centres undefined),-7%,9%,0.9,-5,-0.9,-0.4%
COc1cc(NC(=O)NNC(=O)c2cc3occc3n2C)cc(OC)c1OC,7%,-19%,nt,-12,-0.3,-0.8%
Cc1ccc(NC(=O)c2ccc(CSc3ccccn3)cc2)c(O)c1,-5%,-24%,5.0,19,2.5,-0.9%
CCN(CC)S(=O)(=O)c1cccc(C(=O)N[C@H](C(=O)OCC(N)=O)C(C)C)c1,1%,3%,1.6,1,0.4,-0.6%
CC(=O)N1CCN(S(=O)(=O)c2cccc(C(=O)N3CCN(S(=O)(=O)c4c(C)c(C)cc(C)c4C)CC3)c2)CC1,nt,-67%[inhibitor],nt,-12,0.0,-1.5%
COc1ccccc1CN1C(=O)C2CC=CCC2C1=O (centres undefined),3%,2%,-2.3,-4,0.2,-3.5%
CN(C)CCCNc1oc(/C=C/c2cccs2)nc1S(=O)(=O)c1ccccc1,8%,31%,1.9,-9,1.0,-21%
Nc1c(C(O)(C(F)(F)F)C(F)(F)F)ccc2ccccc12,-12%,13%,?,-9,1.5,28µM*
CC(=O)c1ccc(NC(=O)CN(C)S(=O)(=O)c2cccc3nsnc23)cc1,nt,nt,nt,14,-0.5,-0.9%
CC(C)CC(NC(=O)C1CCC(C)CC1)C(=O)OCC(=O)c1ccc(Cl)cc1 (centres undefined),nt,nt,nt,-23,-1.0,-1.9%
Cc1cccc(N(CC(=O)N(C)Cc2ccccc2)S(=O)(=O)c2ccccc2)c1C,nt,nt,nt,59,-0.1,-0.8%
Cc1n[nH]c(C)c1CCC(=O)N/N=C/c1cccc([N+](=O)[O-])c1,-4%,0%,-3.8,19,0.4,nt
Cc1onc(-c2c(F)cccc2Cl)c1-c1nnc(-c2cccc3ccccc23)o1,6%,7%,2.3,5,-1.0,nt
COc1cccc(-c2nn3c(-c4cc(C)[nH]n4)nnc3s2)c1,-8%,-9%,-1.1,-8,1.7&-1.0,-0.2%&-3.8%
CC1CCN(CC2CCN(C(=O)NCc3ccc(F)cc3)CC2)CC1,nt,nt,nt,12,-0.5,3.0%
CCC(C)c1ccc(NC(=O)CSc2nncn2N)cc1 (centres undefined),5%,?,2.9,11,0.3,-0.8%
CCn1c(SCC(=O)N/N=C/c2c[nH]c3ccccc23)nnc1-c1ccc(C)cc1,-23%,24%,-0.8,-9,4.8,-7.0%
N#Cc1ccc(COC(=O)CC(NC(N)=O)c2ccc(Cl)cc2)cc1 (centres undefined),1%,?,nt,8,0.1,nt
COc1ccccc1C(c1c(O)nc(SC)[nH]c1=O)c1c(O)nc(SC)[nH]c1=O,4%,-9%[15.4 µM],nt,9,1.2,nt
O=c1cc2[nH]c3ccccc3c(=O)n2nc1-c1ccccc1,-10%,?,?,12,2.1,-12%
COC(=O)C(CC(C)C)NC(=O)C(Cc1ccccc1)NC(=O)C1CCCN1C(=O)OC(C)(C)C (centres undefined),-14%,-2%[15.4 µM],6.4,26,0.3,nt
CCCCC(=O)Nc1ccc(NC(=O)c2ccc([N+](=O)[O-])cc2)cc1OC,8%,-26%,4.3,24,-0.3,1.1%
C1=C(CCNCC2CCCCC2)CCCC1,14%,-83%[inhibitor],1.0,-5,0.0,-3.3%
CCOC(=O)c1c(C)nc2cc(C)ccn12,11%,-4%,1.5,17,2.8,-7.2%
CCCCCc1nnc(NC(=O)c2cccc(S(=O)(=O)N3CCOCC3)c2)s1,-10%,-33%[inhibitor],nt,5,1.2,-3.4%
O=C1NCCCC1C(=O)N/N=C/c1ccccc1O (centres undefined),9%,17%,2.4,-2,2.7,-28%
O=C(CSc1nnnn1-c1cccc2c1CCCC2)N1CCOCC1,6%,-7%,2.0,4,-0.4,-1.5%
CC(C)(CO)NCc1cccc(OCc2ccc(Cl)cc2)c1,12%,-5%,-0.9,-6,0.8,-2.3%
CC(=O)N1Cc2ccccc2CC1C(=O)N1CCN(c2ccccc2)CC1 (centres undefined),0%,-8%[15.4 µM],-4.9,-3,-0.1,nt
O=C(C(Cc1ccccc1)n1cccc1)N1CCCCCC1 (centres undefined),-1%,-36%[inhibitor],2.0,8,-0.3,0.9%
CCN1CCN(c2nc(N)c([N+](=O)[O-])c(Nc3ccc(C)c(C)c3)n2)CC1,15%,-15%[15.4 µM],nt,-4,-0.2,0.3%
CCS(=O)(=O)Nc1cc2c3c(c1)CCN3C(=O)CC2,-1%,4%,-9.9,26,3.7,-1.1%
COc1cccc(C2NC(=O)NC(C)=C2C(=O)OCC2CCCO2)c1 (centres undefined),-1%,-20%[15.4 µM],-0.3,20,0.6,nt
Cc1ccc(CNc2ccc(N3CCOCC3)cc2)cc1,-9%,?,-1.0,16,0.0,nt
COc1ccc(S(=O)(=O)N2CCN(Cc3ccc(Cl)cc3)CC2)cc1,-6%,19%,0.8,1,5.6,-0.7%
Nc1c(C(=O)NCc2ccccc2)nnn1Cc1ccccc1,?,6%,-2.6,-16,-0.1,-1.4%
COc1ccc(C(C[N+](=O)[O-])c2c(-c3ccccc3)cc3ccccn23)cc1 (centres undefined),1%,3%,4.2,-9,3.0,3.7%
CN(Cc1ccon1)C(=O)C1CCC(=O)N(CCc2ccc(Cl)cc2)C1 (centres undefined),-4%,-2%,-0.2,7,-0.6,-0.3%
COc1ccc(NC(=O)c2c(-c3ccc(C)cc3)nnc3ccccc23)cc1Cl,nt,nt,nt,-24,1.8,0.6%
CCCOc1nc(N)c(C#N)c(-c2ccccc2F)c1C#N,?,7%[15.4 µM],3.4,8,1.1,2.0%
COc1ccc(C(=O)Nc2cc(C(C)C)c(O)c(S(=O)(=O)c3ccc(Cl)cc3)c2C)cc1,nt,nt,nt,-8,-0.4,-3.7%
O=C(Cc1ccc(-c2ccccc2)cc1)NCCS(=O)(=O)N1CCN(c2ccccc2F)CC1,nt,nt,nt,10,1.7,-0.5%
Cc1ccc(S(=O)(=O)N2CCN(C(=O)COC(=O)CCOc3ccccc3C)CC2)cc1,-6%,-20%,nt,12,1.1,0.9%
Cc1cc(NC(=O)c2cccnc2)ccc1NC(=O)c1ccco1,5%,10%,-0.1,4,-0.9,-2.0%
CC(C)OC(=O)CC12CN3CC(CC(=O)OC(C)C)(CN(C1)C(=O)c1ccccc1C3=O)C2=O,1%,2%,0.6,50,-0.1,-0.9%
O=C(c1ccc(N2CCCC2)c([N+](=O)[O-])c1)N1CCN(c2ccccn2)CC1,3%,10%,-3.2,-1,-1.0,0.1%
CN(Cc1ccco1)S(=O)(=O)c1nnc(NC(=O)c2ccc(F)cc2)s1,?,-12%,3.9,-1,-0.3,-2.3%
Cc1ccc(C(C)C)c(Oc2nnnn2-c2ccccc2)c1,?,4%,-0.3,-6,1.0,-1.5%
O=[N+]([O-])c1cc2ccccc2nc1-c1ccccc1,-5%,-30%[inhibitor],nt,40,-0.3,nt
Cc1ccc(NC(=O)CSc2ncccn2)cc1F,-1%,8%,-3.7,8,3.0,-1.2%
Cc1c(C)n(-c2ccccc2)c2ncnc(NCCN(C)C)c12,6%,-4%,-3.4,nt,nt,-5.1%
O=C(NCc1ccncc1)C(=O)NCC(c1ccco1)N1CCN(c2ccccc2F)CC1 (centres undefined),-1%,-25%,3.7,-21,0.0,-1.9%
COc1ccc(-n2c(=S)[nH]c3cc(C(=O)Nc4ccc(C)c(F)c4)ccc3c2=O)c(OC)c1,?,-7%,3.3,24,1.0,nt
Cc1oc(-c2cccc(Cl)c2)nc1CS(=O)(=O)CC(=O)NCc1ccco1,-1%,-20%,-0.8,22,-0.8,-4.2%
Cc1csc2nnc(N)n12,15%,-9%,-1.3,6,0.6,-2.3%

# Entries of single compounds, quoted from the list. Values in the order: gsp antag	gsp agonist	Menin MLL FP FL	TRPML1 blocker	TRPML1 ag	ClpP mod
# COc1ccc(-n2c(=S)[nH]c3cc(C(=O)Nc4ccc(C)c(F)c4)ccc3c2=O)c(OC)c1 as listed: ?	-7%	3.3	24	1.0	nt
# O=C(NCc1ccncc1)C(=O)NCC(c1ccco1)N1CCN(c2ccccc2F)CC1 (centres undefined) as listed: -1%	-25%	3.7	-21	0.0	-1.9%
# Cc1c(C)n(-c2ccccc2)c2ncnc(NCCN(C)C)c12 as listed: 6%	-4%	-3.4	nt	nt	-5.1%
# O=[N+]([O-])c1cc2ccccc2nc1-c1ccccc1 as listed: -5%	-30%[inhibitor]	nt	40	-0.3	nt

# Next part.
Compound,gsp antag,gsp agonist,Menin MLL FP FL,TRPML1 blocker,TRPML1 ag,ClpP mod
CCOc1cc(/C=C\[N+](=O)[O-])ccc1OCC(=O)Nc1ccccc1C,9%,?,-5.0,16,5.8,-0.2%
CC(C(=O)O)N1C(=O)C2C3CC(C2C1=O)C1C(c2ccccc2)c2sc(=O)[nH]c2SC31 (centres undefined),-3%,5%,10,18,1.7,-5.0%
COc1cc2c(cc1OC)C(C(=O)Nc1cc(C)c(OC)c(C)c1)CC(=O)N2 (centres undefined),9%,-6%[15.4 µM],0.0,-19,-0.2,-1.2%
CCC(C(=O)NC1CCCC1)n1c2ccccc2c2nc(=O)cc(C)n21 (centres undefined),-9%,-5%[15.4 µM],nt,-3,0.8,nt
CN(C)CCC1Sc2ccccc2Oc2ccccc21 (centres undefined),7%,-13%,12,3,-0.2,-1.1%

# Bioassay records: PubChem, National Center for Advancing Translational Sciences (NCATS)

# This is a random part of the collection (roughly 2.1% active in at least one column).
